# Screening results deposited in PubChem by National Center for Advancing Translational Sciences (NCATS).
# gsp ag = gsp mutant agonism | gsp mutant cells, cAMP HTRF, 30 min; control for the full effect not named in the record | Potency, µM (top dose mostly 76.9 µM), for the others: at the top dose activation (cAMP increase), most hits filed as activators | 0.13% of 340,000 active; active = well fitted activation curve with a large enough effect; inconclusive = small, poorly fitted or top-dose-only effect, or another doubt; inactive = no such curve, though single readings can be large or run the other way; cell line not stated here;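 note: phosphodiesterase inhibitor Ro 20-1724 added with compounds to block cAMP breakdown; potency is the fitted concentration of half-maximal effect; nearly all actives have a fitted effect of over 60% in size; about a fifth of the inactives were tested at one dose only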
#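 Cells in DMEM/10% FBS with G418 were pretreated with compounds in DMSO plus […] (300 uM stock) for 30 min at 37C. cAMP was measured by HTRF (cAMP-d2 plus anti-cAMP antibody-K) after 30 min at room temperature.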
# gsp antagonist = gsp mutant antagonism. 0.4% of 340,000 active. Potency, µM (doses to about 76.9 µM), for the others: at the top dose activity change, negative = inhibition, hits mostly inhibitors. gsp-mutant cells, cAMP HTRF, 30 min; control for the full effect not named in the record. AID 624288; active = falling curve of any shape with a large fitted effect; inconclusive = falling curve, mostly with a smaller effect; inactive = flat or rising curve; cell line not stated here;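 note: intracellular cAMP measured with PDE inhibitor Ro 20-1724 present during compound exposure; potency is the fitted concentration of half-maximal effect; % is set by controls: 0 for no effect and ±100 for the full control effect; nearly all actives have a fitted effect of over 65% in size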
#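 G418-selected cells were plated in DMEM/10% FBS for 16-24 h at 37C, then treated with compounds plus the PDE inhibitor […] (300 uM solution added) for 30 min at 37C. Intracellular cAMP was measured by HTRF after 30 min lysis at room temperature.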
# Sfp PPTase inh = blocks B. subtilis Sfp PPTase activity; Biochemical Sfp PPTase activity, qHTS; 3.5% of 310,000 active; Potency, µM, for the others: max response, negative = inhibition, actives largely listed as inhibitors; Q9F4F7; AID 1490; active = well fitted inhibition curve with a large enough effect; inconclusive = small, poorly fitted or top-dose-only effect, or another doubt; inactive = no such curve, though single readings can be large or run the other way;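 note: the enzyme is Sfp with the accession as filed and its product quenches rhodamine fluorescence; potency is the fitted concentration of half-maximal effect; 0% = enzyme reaction without inhibitor and -100% = no enzyme wells; top concentration of the series not given in the record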
#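 Fluorescence-quenching assay with 15 nM Sfp, 5 uM rhodamine-CoA and 12.5 uM BHQ-2-labelled ybbR peptide in pH 7.6 Hepes/MgCl2 buffer. Enzyme was pre-incubated with compound for 15 min at room temperature. Rate was taken from the 30-min fluorescence change (525/598 nm).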
# Menin MLL FP FL = displaces fluorescein MLL peptide from human menin | Fluorescence polarization, fluorescein-MLL peptide displacement from menin | 290,000 tested, under 10 active | FP activity change, % at 61.4 µM; inconclusive = falling polarisation curve, or a change in total fluorescence; inactive = total fluorescence flat and polarisation flat or rising; no compound was filed as active; the % refers to the polarisation; negative = inhibition;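 note: % of control where 0% means no effect; inhibitors lower the polarisation; unlabelled MLL peptide was the positive control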
# TRPV1 potentiator = potentiators of human vanilloid receptor 1 (TRPV1); TRPV1-expressing cells, Fluo-8 calcium influx, capsaicin EC20 potentiation; host cell line not named in the record; control for the full effect not named in the record; potentiation, % at 8.33 µM; 0.02% of 320,000 active; Q8NER1; active means potentiation above 80%; inconclusive means 30% to 80%; inactive means below 30%; note: 0% is about no effect
# Target sequence (Q8NER1 whole entry, looked up): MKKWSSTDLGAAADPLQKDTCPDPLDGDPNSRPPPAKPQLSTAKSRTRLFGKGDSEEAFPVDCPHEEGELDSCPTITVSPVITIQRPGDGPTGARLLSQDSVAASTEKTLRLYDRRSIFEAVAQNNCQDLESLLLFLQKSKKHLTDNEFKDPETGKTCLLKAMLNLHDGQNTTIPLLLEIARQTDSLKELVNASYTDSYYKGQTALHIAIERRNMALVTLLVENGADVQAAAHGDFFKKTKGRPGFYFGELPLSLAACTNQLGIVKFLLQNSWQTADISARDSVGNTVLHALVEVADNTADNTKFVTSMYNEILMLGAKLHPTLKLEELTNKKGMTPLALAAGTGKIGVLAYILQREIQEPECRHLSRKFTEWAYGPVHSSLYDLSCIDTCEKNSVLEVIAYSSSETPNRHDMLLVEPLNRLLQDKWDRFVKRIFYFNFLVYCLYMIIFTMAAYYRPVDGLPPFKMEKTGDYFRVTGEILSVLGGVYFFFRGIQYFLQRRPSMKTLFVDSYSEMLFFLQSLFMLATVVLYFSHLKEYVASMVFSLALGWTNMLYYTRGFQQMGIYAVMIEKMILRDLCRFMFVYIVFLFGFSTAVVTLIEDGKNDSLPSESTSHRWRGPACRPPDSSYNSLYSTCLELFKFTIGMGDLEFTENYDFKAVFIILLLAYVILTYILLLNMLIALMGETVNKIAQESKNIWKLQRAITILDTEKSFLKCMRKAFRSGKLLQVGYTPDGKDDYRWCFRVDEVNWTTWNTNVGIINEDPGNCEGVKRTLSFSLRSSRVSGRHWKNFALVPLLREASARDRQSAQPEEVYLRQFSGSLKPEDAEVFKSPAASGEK
#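 Fluo-8 calcium influx in TRPV1-expressing cells, kinetic read (ex 480/em 520 nm). Compound added and read 3 min for agonist activity, followed by capsaicin at EC20 final and 2 min further read for enhancement.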
# ClpP mod = qHTS Assay for Activators of ClpP. ATP-dependent Clp protease proteolytic subunit (Bacillus subtilis (strain 168)), P80244. purified B. subtilis ClpP, FRET peptide cleavage, 20 min. 1.9% of 340,000 active. Potency, µM (top dose mostly 57.5 µM), inactives show at the top dose activity change, negative = active; active = well fitted falling curve with a large enough effect; inconclusive = small, poorly fitted or top-dose-only effect; inactive = no such curve, though single readings can be large or run the other way; note: potency is the fitted concentration of half-maximal effect; the source files actives as falling curves though it sought activators and does not explain the sign; nearly all actives have a fitted effect of over 65% in size; many hits overshoot -100%
# Target sequence (P80244 whole entry, looked up): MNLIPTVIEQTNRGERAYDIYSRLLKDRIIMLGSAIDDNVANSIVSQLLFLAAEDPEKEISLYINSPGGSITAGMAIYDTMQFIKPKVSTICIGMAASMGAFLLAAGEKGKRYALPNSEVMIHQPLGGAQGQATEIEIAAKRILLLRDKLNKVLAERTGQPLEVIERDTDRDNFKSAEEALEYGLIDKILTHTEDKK
#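 ClpP 10 microg/mL final, pH 8 Tris/KCl buffer with BSA, glycerol, Tween-20; compound pinned in; FRET-FV substrate; RT 20 min; Ex320/Em430; ΔFRET vs ADEP 5.8 microM, DMSO, no enzyme.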
# TRPML1 inh = blocks the human TRPML1 channel | AID 624415 | 0.02% of 390,000 active | TRPML1-inducible cells, Ca2+ dye fluorescence, FDSS; stronger effect = lower value; inhibition of EC80 agonist-evoked calcium signal | activity change, negative = inhibition, % (no concentration beside the values) | Q9GZU1; in the data active means activity change below about -50%; inconclusive means about -30% to -50%; inactive means above about -30%;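 note: stimulus is agonist 54-4 at its EC80 concentration; % is set by controls: 0 for no effect and ±100 for the full control effect; compound concentration not given in the record; the text of the record puts the active cut at -80%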
#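 TRPML1-DL cells, Tet-induced overnight (~16 h, 37 °C) at 1,500 cells/well, were loaded with Ca8 no-wash dye plus quencher for 45-90 min at room temperature. Compounds were pinned during FDSS kinetic reading; agonist 54-4 at EC80 (4 uM final) then added.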
# An asterisk follows results filed as active; ? = inconclusive; nt = not tested or not shown; [ ] = remark or other dose.
SMILES	gsp ag	gsp antagonist	Sfp PPTase inh	Menin MLL FP FL	TRPV1 potentiator	ClpP mod	TRPML1 inh
Cc1cc(C)n2[nH]c(=O)cc2n1	-32%[inhibitor]	nt	nt	nt	nt	-2.8%	-9
CCOC(=O)C(=O)Nc1cc([N+](=O)[O-])ccc1C	-26%	-18%	14%	9.3	-2	-1.8%	-12
CCC(C)NC(=O)CN(C)S(=O)(=O)c1ccc2c(c1)c(=O)n(C)c(=O)n2C (stereo not drawn)	?	5%	27%	12	4	-9.6%	2
CCOc1cc(C2C3=C(CC(C)(C)CC3=O)N(CCOC)C3=C2C(=O)CC(C)(C)C3)ccc1OC	33%	-3%	14%	1.0	0	0.7%	6
O=C(CCN1C(=O)/C(=C/c2ccccc2Cl)SC1=S)Nc1ccccc1C(=O)O	-32%[inhibitor]	?	1%	-3.4	11	1.4%	29
O=C1NC(=Nc2ccc(Cl)cc2)SC1Cc1cc(Cl)ccc1Cl (stereo not drawn)	-20%	-10%	10%	4.6	-3	7.3%	-23
COC(=O)c1cnc(SC)nc1C	-3%	2%	7%	-0.2	27	-2.1%	17
FC(F)(F)C1CC(c2cccs2)Nc2ncnn21 (stereo not drawn)	-4%	-13%	4%	3.5	-7	-5.7%	4
Cc1c(NC(=O)c2cccc(NC(=O)Cc3c(F)cccc3Cl)c2)c(=O)n(-c2ccccc2)n1C	-2%	5%	nt	nt	0	-2.3%	13
CCCc1oc2c(c(=O)c1CC)C(=O)CC(C)(C)C2	-38%[inhibitor]	-9%	19%	1.4	-20	0.7%	2
CN1CCN(C(=O)c2ccc(Cl)c(S(=O)(=O)N3CCCCCC3)c2)CC1	14%[15.4 µM]	nt	17%	1.3	5	nt	-8
COc1cccc(C2c3c(C)nn(-c4ccc([N+](=O)[O-])cc4)c3N=C3C(=O)Nc4ccccc4N32)c1 (stereo not drawn)	-2%[15.4 µM]	nt	?	-1.5	4	nt	22
Cc1cccc(N2CCN(C(=O)CSc3nc4ccccc4nc3N3CC(C)OC(C)C3)CC2)c1C (stereo not drawn)	-6%[15.4 µM]	-6%	-2%	-2.2	-5	-0.1%	2
Cc1ccc(C)c2c1[nH]c1ccccc12	1%	-4%	13%	0.4	-1	-11%	0
Cc1cccc2c1cnn2C(=O)Nc1ccccc1Cl	-3%[15.4 µM]	9%	1%	-2.8	-6	-1.0%	-7
CCCCC(O)(CCCC)C(=O)NN(C(=O)c1cccnc1Cl)c1ccccc1	2%[15.4 µM]	-5%	30%	2.6	-11	-11%	-12
Cc1c(NS(=O)(=O)c2ccc(NC(=O)CCC(=O)O)cc2)c(=O)n(-c2ccccc2)n1C	26%	9%	8%	-0.8	?	-2.3%	4
O=C(COc1c(CO)cc(Br)cc1CO)NC1CCCc2ccccc21 (stereo not drawn)	7%[15.4 µM]	-1%	18%	2.5	11	nt	-15
CN1OC[C@@H]2CN(S(=O)(=O)c3cccc4ccccc34)[C@H](c3ccc(-c4cccnc4)cc3)C[C@@H]21	-40%[inhibitor]	nt	nt	nt	nt	-1.8%	27
Cc1ccc(SC(CC(=O)c2ccc(F)cc2)C(=O)O)cc1 (stereo not drawn)	-8%[15.4 µM]	-16%	50µM*	-16	12	2.9%	-12
COc1cccc(NC(=O)COc2cc(C)cc3oc(=O)cc(C)c23)c1	29%	-23%	3%	-0.9	15	?	-21
Cc1ccc(C(=O)O)cc1NS(=O)(=O)c1ccc2c(c1)oc(=O)n2C	5%[15.4 µM]	1%	9%	?	2	nt	0
COCCOC(=O)C(C#N)c1nc2ccccc2nc1N1CCCC1 (stereo not drawn)	-3%	-18%	14%	13	-3	-12%	-2
O=C(Cn1cccc1C(=O)c1ccccc1)NCc1ccco1	-56%[inhibitor]	-8%	19%	4.6	8	0.1%	-8
O=S(=O)(Nc1ccccn1)c1ccc(Br)cc1	-2%	10%	14%	-3.3	5	-21%	?
CCOC(=O)/C=C/C(=O)OCC(=O)Nc1cccc(Cl)c1Cl	15%	-2%	6%	-2.6	18	nt	-1
C(=N\Nc1ccc2ccccc2n1)/c1ccc2c(c1)OCCO2	?	13%	-59%	0.0	16	4.0%	-21
CCN(C[C@H]1N[C@@](CC)(C(=O)OC)[C@H]2C(=O)N(C)C(=O)[C@@H]12)S(=O)(=O)c1ccc(OC)cc1	nt	7%	nt	nt	nt	2.4%	-12
CCC(C(=O)NC1CCCC1)N(Cc1ccco1)C(=O)Cn1nnc(-c2ccc(C)cc2)n1 (stereo not drawn)	14%	-27%	12%	0.0	-11	1.3%	23
COc1ccc(OC)c(NC(=O)CCCNC(=O)Cn2cnc3sc(C)c(C)c3c2=O)c1	-5%[15.4 µM]	-17%	7%	5.7	20	-18%	-6
CC(Oc1ccc(C(C)(C)C)cc1)C(=O)NCC(c1ccco1)N1CCCC1 (stereo not drawn)	-2%	0%	nt	nt	-25	-3.2%	-3
CN(C)C(CNC(=O)C1CCN(S(=O)(=O)c2ccccc2C(F)(F)F)CC1)Cc1ccccc1 (stereo not drawn)	4%	15%	nt	nt	-8	-0.6%	14
O=Cc1ccc(Oc2cccc(C(F)(F)F)c2)nc1	2%	0%	17%	1.6	3	nt	-12
Cc1nc(NC(=O)c2cncc(Br)c2)ccc1Br	-4%[15.4 µM]	8%	7%	3.1	-1	-0.6%	11
COc1ccc(C(=O)N2CCCC(Nc3ccc(C)c(C)c3)C2)c(OC)n1 (stereo not drawn)	25%	-11%	11%	-1.7	-13	-0.6%	-5
Cc1ccccc1Cn1cc(NC(=O)c2cc(-c3cccs3)on2)cn1	36%	10%	31%[activator]	2.8	-5	70%	-8
CC1CN(C(=O)COC(=O)/C=C/c2cccc([N+](=O)[O-])c2)CC(C)O1 (stereo not drawn)	17%	3%	nt	nt	nt	?	16
CCOc1ccc(C(=O)NC2CCCCCCC2)cc1	-2%[15.4 µM]	-25%	nt	nt	nt	0.9%	-3
O=C(O)COc1ccccc1C(Nc1cccnc1)c1cc(Cl)c2cccnc2c1O (stereo not drawn)	-36%[inhibitor]	-19%	22µM*	-4.4	7	nt	3
Cc1cc(C(=O)NC2CCCCC2)c2cc(F)ccc2n1	?	9%	17%	-3.0	3	-7.3%	3
CCOc1cccc(-c2cc(C(=O)NN)[nH]n2)c1	8%[15.4 µM]	-13%	3%	-3.8	-4	-0.7%	-4
COc1cc(/C=C2/CC/C(=C/c3ccc(O)c(OC)c3)C2=O)ccc1O	1%	-27%	?	?	30	-0.5%	nt
CCOc1ccccc1NC(=O)C(=O)N/N=C/c1cc(Br)ccc1O	-37%	-5%	8%	?	19	nt	-6
O=C(Cc1ccccc1)N/N=C/c1ccc[nH]1	1%	-2%	-9%	0.5	3	0.6%	-11
CS(=O)(=O)N(CC(N)=O)c1ccc2c(c1)OCO2	17%	-4%	9%	-1.8	-1	0.0%	53
O=C(Nc1ccccc1)O/N=C(\c1ccccc1)c1ccccn1	-37%[inhibitor]	13%	56µM*	1.5	11	0.8%	-4
COc1ccc(OC)c(Nc2nc(C3CC3)nc3c2nnn3Cc2ccccc2)c1	-35%[inhibitor]	-21%	6%	3.4	12	?	-14
COc1ccc(S(=O)(=O)N2CCCCCC2)cc1N(C)S(=O)(=O)c1ccc(C)cc1	-69%[inhibitor]	-3%	-6%	1.8	18	-3.8%	20
COc1ccc(C(=O)COc2ccc(NC(C)=O)cc2)cc1	-48%	-6%	23%	1.0	-2	-0.1%	-2
CC(C)CC(C(=O)O)N1C(=O)C2C3C=CC(C2C1=O)C1C(=O)N(C(CC(C)C)C(=O)O)C(=O)C31 (stereo not drawn)	?	-5%	18%	nt	-9	0.6%	-15
O=C(OCCCC(=O)N1CCOCC1)c1ccccc1	-2%	7%	15%	1.7	-5	0.4%	-9
Cc1cc(NC(=O)CCSc2ccccc2)no1	-8%	6%	7%	-3.2	-5	0.1%	41
Cc1ccc(S(=O)(=O)CCc2nnc(NC(=O)c3ccccn3)s2)cc1	-24%	-1%	2%	-1.4	-2	-3.8%	0
CC1=C(/C=C/C(C)=C/C=C/C(C)=C/C(=O)O)C(C)(C)CCC1	nt	13%	?	?	2	-1.1%	-8
CCCOc1ccc(Cn2ccnc2)cc1[N+](=O)[O-]	-4%	14%	21%	2.8	6	0.2%	-4
CC(C)CN(C(=O)C1CC1)c1c(N)n(Cc2ccccc2)c(=O)[nH]c1=O	4%[15.4 µM]	9%	nt	nt	1	nt	-10
Cc1c(C(=O)Nc2cc(S(=O)(=O)N3CCOCC3)ccc2N2CCOCC2)oc2ccccc12	-17%	?	12%	0.2	12	?	7
Cc1cc(C(=O)O)c(C)n1Cc1ccncc1	6%[15.4 µM]	9%	-7%	?	1	-6.6%	-8
COc1ccc(-c2cccc(NS(=O)(=O)c3cc([N+](=O)[O-])ccc3Cl)c2)nn1	-7%[15.4 µM]	-23%	nt	nt	0	nt	-12
COc1cccc(/C=N/Nc2ccc(Cl)nn2)c1OC	6%	7%	nt	nt	nt	0.8%	-3

# Next structures follow.
SMILES	gsp ag	gsp antagonist	Sfp PPTase inh	Menin MLL FP FL	TRPV1 potentiator	ClpP mod	TRPML1 inh
Cc1ccsc1C(=O)N1CC=C(c2ccccc2)CC1	-7%[15.4 µM]	-6%	nt	nt	16	0.1%	-7
Cc1ccc(NC(=S)NCCc2ccccc2)c(C)c1	-26%	9%	-16%	3.7	-6	-0.2%	8
CN(C)C=Nc1nonc1-c1ncn[nH]1	14%	4%	?	-0.7	-10	-2.1%	-8
CC(C)c1ccc(N(CC(=O)NC2CCCCC2)C(=O)CCC(=O)Nc2ccccn2)cc1	2%[15.4 µM]	-4%	-1%	0.6	29	1.0%	-6
O=C(Cc1c(Cl)cccc1Cl)N1CCN(S(=O)(=O)c2cccs2)CC1	-6%	-10%	nt	nt	-2	0.2%	3
CC1Cc2ccccc2N1C(=O)c1cc2sccc2n1Cc1ccccc1 (stereo not drawn)	26%	-2%	-22%	5.6	6	-11%	10
CN1CCN(C(=O)c2cnn3c(C(F)(F)F)cc(-c4cccs4)nc23)CC1	-4%	-8%	4%	0.1	0	-29%	-1
Cn1c(Cc2nc(-c3cnccn3)no2)nnc1SCC(=O)Nc1ccccc1	3%[15.4 µM]	2%	-2%	2.9	2	nt	-7
